# CtBP-E1A inh: CtBP/E1A binding inhibition; AlphaScreen GST-E1A/His-CtBP binding, 1536-well; stronger effect = lower value; control for the full effect not named in the record; activity change, % (test concentration not listed); actives 0.49% (n = 340,000); in the data active means activity change below about -65%; inconclusive means about -30% to -65%; inactive means above about -30%; further: on the % scale 0 is the no-effect control and ±100 the full control effect; compound concentration not given in the record
#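 Homogeneous bead-based format: GST-tagged E1A captured on glutathione donor beads, His-tagged CtBP on nickel acceptor beads; compounds precede bead addition by 2 h at 37 °C.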
# TRPML1 agonist: activates the human TRPML1 channel. activation, % (no concentration beside the values). Q9GZU1. TRPML1-expressing cells, Ca2+ dye fluorescence, FDSS; host cell line not named in the record; reference of the full effect not given here. actives 0.12% (n = 410,000). AID 624414; in the data active = activation above about 50%; inconclusive = about 30% to 50%; inactive = below about 30%; further: 0% is about no effect; the text of the record puts the active cut at 80%
# Target sequence (Q9GZU1 whole entry, looked up): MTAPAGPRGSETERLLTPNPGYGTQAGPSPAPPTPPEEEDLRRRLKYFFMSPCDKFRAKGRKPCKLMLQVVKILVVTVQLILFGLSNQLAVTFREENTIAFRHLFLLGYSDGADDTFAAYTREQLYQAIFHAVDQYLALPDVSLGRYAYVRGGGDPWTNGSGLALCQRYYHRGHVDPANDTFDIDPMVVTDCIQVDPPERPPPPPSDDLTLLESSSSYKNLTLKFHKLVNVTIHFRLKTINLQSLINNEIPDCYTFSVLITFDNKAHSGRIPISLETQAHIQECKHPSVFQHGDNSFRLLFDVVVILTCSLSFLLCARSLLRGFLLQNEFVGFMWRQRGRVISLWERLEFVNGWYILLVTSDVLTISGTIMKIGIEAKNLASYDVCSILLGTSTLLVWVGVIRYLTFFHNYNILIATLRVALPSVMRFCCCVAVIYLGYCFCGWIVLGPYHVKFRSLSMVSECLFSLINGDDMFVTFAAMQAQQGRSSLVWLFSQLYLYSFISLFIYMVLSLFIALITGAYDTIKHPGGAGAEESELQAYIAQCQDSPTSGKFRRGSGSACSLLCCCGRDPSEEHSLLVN
#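 Tetracycline-induced TRPML1-DL cells are seeded and incubated overnight before loading with a no-wash Ca2+ dye and quencher. Agonist activity is taken from the 110 s fluorescence read following compound pin-transfer on an FDSS, before EC80 54-4 challenge.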
# PINK1 modulator: modulators of PINK1 expression | PINK1 immunofluorescence, high-content cytometry, 24 h | actives 0.2% (n = 410,000) | Potency, µM (highest dose often 76.6 µM), without a hit: at the highest dose activation (PINK1 increase), actives largely listed as activators; active = well fitted activation curve with a large enough effect; inconclusive = small, poorly fitted or top-dose-only effect; inactive = flat fitted curve, though single readings scatter; cell line not stated here;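 further: potency means the concentration at half of the fitted maximal effect; % of control where 0% means no effect; nearly all actives have a fitted effect of over 65% in size; a mitochondrial uncoupler was the plate control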
#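 Stable cell line, 250 cells/well, 12 h attachment; compounds pinned at 5 concentrations, 24 h; CCCP control. Fixed with nuclear dye, primary antibodies 12 h at 10 degrees C, secondary plus cell stain; laser-scanning cytometer read.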
# Six1-Eya2 blk: inhibitors of human Six1/Eya2 interaction; activity change, % (test concentration not listed); actives 0.56% (n = 360,000); AlphaScreen GST-Six1/His-Eya2 binding, biochemical; stronger effect = lower value; control for the full effect not named in the record; AID 651725; in the data active = activity change below about -65%; inconclusive = about -30% to -65%; inactive = above about -30%; further: on the % scale 0 is the no-effect control and ±100 the full control effect; compound concentration not given in the record
#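 Six1/Eya2 binding was read as AlphaScreen signal after compounds were pinned into GST-Six1 plus His-tagged Eya2 (5X stock 250/500 nM) in pH 8.0 Tris/NaCl/TCEP buffer, beads added, then incubated 1 h, 37 C, dark.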
# D2 ag: agonists of human D2 dopamine receptor (beta-arrestin); activation, % (concentration not given with the values); actives 0.084% (n = 360,000); DiscoveRx PathHunter D2 beta-arrestin, luminescence, 90 min; 100% = 57 uM dopamine signal; AID 624465; P14416; in the data active = activation above about 40%; inconclusive = about 15% to 40%; inactive = below about 15%; further: compound concentration not given in the record; the text of the record calls up to 30% inactive
# Target sequence (P14416 whole entry, looked up): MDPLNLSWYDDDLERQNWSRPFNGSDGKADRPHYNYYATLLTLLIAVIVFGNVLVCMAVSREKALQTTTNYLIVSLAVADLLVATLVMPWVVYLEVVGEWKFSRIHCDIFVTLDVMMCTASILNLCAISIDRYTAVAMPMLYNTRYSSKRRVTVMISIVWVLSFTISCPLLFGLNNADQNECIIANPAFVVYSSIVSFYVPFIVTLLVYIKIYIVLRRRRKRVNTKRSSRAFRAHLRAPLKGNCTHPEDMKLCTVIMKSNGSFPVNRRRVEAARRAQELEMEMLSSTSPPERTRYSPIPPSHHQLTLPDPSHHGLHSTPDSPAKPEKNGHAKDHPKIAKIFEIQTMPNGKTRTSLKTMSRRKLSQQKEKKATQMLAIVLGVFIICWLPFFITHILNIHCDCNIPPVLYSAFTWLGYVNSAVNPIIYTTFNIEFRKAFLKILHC
#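 DiscoveRx PathHunter D2 beta-arrestin cells (2,100/well) attached overnight, then compound-stimulated 90 min at 37 C in HBSS/10 mM HEPES/0.1% Tween-20 buffer; beta-galactosidase complementation read by luminescence after 1 h at ambient temperature. Dopamine 57 uM final (EC100) as control.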
# D2 PAM: potentiates the human D2 dopamine receptor allosterically; P14416; DiscoveRx D2 beta-arrestin cells, luminescence, 90 min; 100% = 57 uM dopamine signal; potentiation, % (concentration not given with the values); actives 0.23% (n = 360,000); AID 624464; active = potentiation of 50% or more; inconclusive = 30% to 50%; inactive = 30% or less;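 further: compound concentration not given in the record; tested on top of an EC20 dose of dopamine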
#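 D2 cells co-treated with compound plus 50 nM dopamine (EC20) for 90 min at 37 deg C to detect potentiation. Beta-arrestin recruitment was read as enzyme-fragment luminescence after 1 h at ambient temperature. Full response was set by 57 uM dopamine.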
# * = called active by the depositor; ? = inconclusive; nt = not tested or not shown; & = joins results of further samples; [ ] = remark or other dose. Not a hit list (roughly 1.3% active in at least one column).
compound,CtBP-E1A inh,TRPML1 agonist,PINK1 modulator,Six1-Eya2 blk,D2 ag,D2 PAM
CC(=O)c1cnc(-c2ccccc2Cl)s1,7,0.6,0.5%,11,-3.9,-2
O=C(CCNC(=O)C1CCN(S(=O)(=O)c2ccc(F)cc2)CC1)NCc1cccc(Cl)c1,nt,0.3,-1.2%,2,-2.3,-7
CCn1c(C)nnc1SCC(=O)Nc1cccc(Cl)c1,0,1.8,0.1%,-1,-0.9,1
O=C(NCCOc1ccccc1)C1CCCCC1,6,-0.1,0.6%,6,-3.8,-6
Cc1ccc(NC(=O)CN(C)C(=O)c2cccc(S(=O)(=O)N3CCCC3)c2)cc1,0,-0.3,-0.7%,-15,2.7,-5
COc1cc(-c2nnc(-c3cccnc3)o2)cc(OC)c1OC,-2,0.0,14%[38.3 µM],-9,1.0,-1
Cc1ccc(NC(=O)COC(=O)/C=C/c2c(C)nn(-c3ccc(F)cc3)c2Cl)cc1F,0,1.3,6.9%,19,-3.7,-34
O=C(NCc1ccc(F)cc1)C(=O)NCC1CCCN1S(=O)(=O)c1ccccc1 (stereo unspecified),-11,-0.1,2.6%,2,-2.9,3
CN(C(=O)c1cccc(C#N)c1)c1nnc(-c2ccncc2)s1,-20,0.6,-0.3%,3,-0.6,-8
COc1ccc(-c2csc3nc(C(C)(C)C)oc(=O)c23)cc1OC,nt,1.0,8.0%,1,2.0,-4
CNC(=S)NN=C(C)c1ccc(OC)cc1O,0,0.8,-0.9%,?,-0.9,-15
O=C(/C=C/c1ccc2ccccc2c1)c1ccoc1,17,-0.3,0.0%,7,-2.9,15
CC(C)Oc1ccc(CNC(=O)c2ccc3c(c2)N(C)CCS3)cc1,-29,2.4,3.0%,-26,-0.9,-16
COC(=O)c1c(C)[nH]c(C(=O)CN(C)CC(=O)Nc2cccc(F)c2)c1C,18,0.4,3.2%,1,0.0,-3
O=C(c1ccccc1)N1CCN(C(=O)c2ccccc2)CC1,0,-0.7&-0.6,0.3%&-0.4%,7,-0.7,-16
Cc1ccc2c(C(=O)CN3CCOCC3)c(C)[nH]c2c1,-1,0.3,1.0%,1,-1.7,-9
CCOc1ccccc1NC(=O)c1nc[nH]c1C(=O)Nc1ccccc1OCC,8,-0.6,14%,-2,-6.7,-3
CCCN(Cc1ccccc1)C(=S)NC(=O)c1ccccc1[N+](=O)[O-],0,0.2,0.4%,0,-5.2,-2
CCCn1c(C)cc(=O)c2cc(NC(=O)c3cnccn3)ccc21,-3,-0.7,-2.3%,-6,-2.2,-4
COc1ccc(NC(=O)NCc2ccccn2)c(OC)c1,1,0.3,-0.8%,-1,0.5,-11

# Five entries already listed, ordered by their value in CtBP-E1A inh, lowest first:
molecule	CtBP-E1A inh
CC(C)Oc1ccc(CNC(=O)c2ccc3c(c2)N(C)CCS3)cc1	-29
Cc1ccc(NC(=O)CN(C)C(=O)c2cccc(S(=O)(=O)N3CCCC3)c2)cc1	0
CC(=O)c1cnc(-c2ccccc2Cl)s1	7
O=C(/C=C/c1ccc2ccccc2c1)c1ccoc1	17
COC(=O)c1c(C)[nH]c(C(=O)CN(C)CC(=O)Nc2cccc(F)c2)c1C	18

# Additional entries
compound,CtBP-E1A inh,TRPML1 agonist,PINK1 modulator,Six1-Eya2 blk,D2 ag,D2 PAM
O=C(Nc1ncnc2sc3c(c12)CCCC3)c1ccncc1,4,-0.4,0.3%,9,-1.6,-5
CC(=C/c1ccccc1)/C=N/NC(=O)c1ccc2nc[nH]c2c1,6,0.0,-1.6%,4,-1.0,-24
CCOC(=O)C1CCCN(C(=O)c2ccc(-c3ccccc3Cl)o2)C1 (stereo unspecified),-8,2.4,17%,-9,-0.9,-2
CC(C)c1ccc(NC(=S)NNc2ccc(Cl)c(C(=O)O)c2)cc1,-17,nt,0.9%,-3,5.2,-16
Fc1ccc(-c2nnc(SCc3cccnc3)o2)cc1,2,0.2,-1.3%,0,0.2,-3
O=c1cc(COc2ccccc2[N+](=O)[O-])nc2sccn12,1,0.3,5.8%,-3,-1.1,2
O=C(c1ccc2c(c1)OCO2)C1CCCN(Cc2cc(F)ccc2-n2cccn2)C1 (stereo unspecified),-7,-0.1,-1.3%,-6,-2.0,-13
C=C(C)CNC(=O)CCc1nnc(Cc2cccc(C(F)(F)F)c2)o1,4,-0.6,-0.6%,-2,1.6,-8
Cc1cc(C)n2c3c(c(C#N)c2n1)CC(C)(C)OC3,6,-0.4,-0.3%,2,-1.7,-3
CCOC(=O)c1csc(NC(=O)CCS(=O)(=O)c2ccc(Cl)cc2)n1,-1,2.3,2.2%,8,2.4,-5
O=C(c1ccc(-n2ccnc2)cc1)N1CCCC(CO)(Cc2cccc(Cl)c2)C1 (stereo unspecified),nt,0.7,-0.3%,-3,3.1,-18
CCn1c(SCC(=O)NC(=O)c2ccccc2OC)nc2ccccc21,6,1.5,-0.8%,10,-3.8,-8
Nc1nc(SCc2ccccc2)c2ncn(C3CCCCC3)c2n1,7,7.7,14%,0,6.8,-4
Cc1csc(NC(=O)c2cccc(S(=O)(=O)N3CCCCC3)c2)n1,-17,0.7,-0.9%,-11,0.8,2
CCc1ccc(C2NC(=S)NC3=C2C(=O)CCC3)cc1 (stereo unspecified),2,0.0,0.0%,-1,-0.3,5
COc1ccc(OCc2cc(C(=O)N(C)Cc3nnc(C)o3)no2)c(Cl)c1,6,0.4,0.1%,1,8.6,-3
CC(C)NC(=O)COc1ccccc1C#N,nt,-0.1,-0.8%,-13,-1.4,-10
Cc1ccc(S(=O)(=O)NCC(=O)N(c2ccccc2)C(C(=O)NCc2ccccc2)c2ccco2)cc1 (stereo unspecified),18,2.8,-0.2%,-2,-2.4,-16
O=S(=O)(/N=C(/c1ccccc1Cl)N1CCOCC1)c1ccccc1,5,-0.4,17%[38.3 µM],3,-1.7,0
Cc1cccc(Nc2nnc(SCC3CCCCO3)s2)c1C (stereo unspecified),0,1.3,2.9%,0,-2.3,-4

# The final four compounds of the part before are carried over, then new ones follow:
compound,CtBP-E1A inh,TRPML1 agonist,PINK1 modulator,Six1-Eya2 blk,D2 ag,D2 PAM
CC(C)NC(=O)COc1ccccc1C#N,nt,-0.1,-0.8%,-13,-1.4,-10
Cc1ccc(S(=O)(=O)NCC(=O)N(c2ccccc2)C(C(=O)NCc2ccccc2)c2ccco2)cc1 (stereo unspecified),18,2.8,-0.2%,-2,-2.4,-16
O=S(=O)(/N=C(/c1ccccc1Cl)N1CCOCC1)c1ccccc1,5,-0.4,17%[38.3 µM],3,-1.7,0
Cc1cccc(Nc2nnc(SCC3CCCCO3)s2)c1C (stereo unspecified),0,1.3,2.9%,0,-2.3,-4
O=C(c1cc(COc2cccc(C(F)(F)F)c2)on1)N1C[C@@H]2CCC[C@H]1C2,9,0.6,2.6%,8,1.6,5
O=S(=O)(c1ccccc1)c1nc(-c2ccco2)oc1NCCCN1CCOCC1,0,0.3,-2.7%,-4,-4.9,-28
CCOc1ccccc1NC(=O)CC1NCCNC1=O (stereo unspecified),0,-0.8,0.9%,5,-0.4,4
CNC(=S)NNc1nc(-c2ccccc2)c2cc(Cl)ccc2n1,-30,1.6,2.0%,-20,2.9,-2
CCCCNCc1cc(OC)c(OCC(N)=O)cc1Br,1,-0.4,2.1%[38.3 µM],3,-0.3,-19
CCOC(=O)N1CCN(C(=O)CS(=O)(=O)c2cn(Cc3ccccc3C)c3ccccc23)CC1,3,-0.5,3.8%,1,-1.7,2
CSCCCNC(=O)c1ccccc1OC1CCN(S(C)(=O)=O)CC1,17,-0.2,2.0%,8,2.2,-6
O=C(Cn1c(=O)cnc2ccccc21)Nc1cccc(S(=O)(=O)N2CCCCC2)c1,nt,-1.3,-0.4%,-2,-1.2,-11
O=C(CCC(=O)N1CCOc2ccccc21)Nc1ccccc1Br,-7,0.1,-0.3%,-8,-0.1,-5
Cc1csc(NC(=O)c2ccccc2)n1,nt,-0.4,3.1%,6,5.0,-3
CCCNC(=O)CC1C(=O)N(Cc2ccccc2)C(C)c2nc3ccccc3n21 (stereo unspecified),9,-0.5,-2.9%,2,-1.9,-2
CCN(CC)c1ccc(S(=O)(=O)N2CCOCC2)cc1NS(C)(=O)=O,12,-0.4,2.4%,1,6.3,6
CCCNCC(=O)Nc1sc2c(c1C(=O)Nc1c(C)n(C)n(-c3ccccc3)c1=O)CCCC2,-4,0.1,-1.2%,0,-2.8,-36
O=C(NC(=S)Nc1ccc(S(=O)(=O)Nc2nccs2)cc1)c1ccccc1,0,0.0,-2.5%,-1,-8.9,-12
CCOC(=O)C1CCN(C(=O)c2sc3nc(C)nc(N4CCC(C)CC4)c3c2C)CC1,2,0.5,8.0%[38.3 µM],-2,0.3,-4
COc1ccc(Br)cc1S(=O)(=O)Nc1ncccc1C,nt,0.2,1.8%,13,1.1,-6
O=C1CCC(C(=O)Nc2ccc(OC(F)F)cc2)N1 (stereo unspecified),14,-0.4,0.1%,1,-0.8,-10
Cc1c[n+]([O-])cc(C)c1Oc1ccccc1,6,-0.5,2.2%,12,0.9,-7
CCCNC(=O)Nc1nc2ccccc2s1,2,0.6,-1.1%,-2,0.4,-3
COc1cc(CCN2C(=O)c3cccc4cccc(c34)C2=O)c(S(=O)(=O)N2CCC(C)CC2)cc1OC,-20,-0.1,1.4%,-9,-3.4,10

# Carrying on:
compound,CtBP-E1A inh,TRPML1 agonist,PINK1 modulator,Six1-Eya2 blk,D2 ag,D2 PAM
CCCc1c(-c2ccc(F)cc2F)ncn1Cc1ccccc1OC,-4,-0.1,?,-10,nt,nt
Fc1ccc(COc2ccc3ccccc3c2CNc2nn[nH]n2)cc1,-5,-0.1,0.7%,0,-2.9,-5
O=C(O)CSCC(=O)Nc1ccccc1SCCS(=O)(=O)c1ccc(Cl)cc1,4,0.0,-1.0%,-4,-0.7,4
COc1ccc(NC(=O)CSCC(=O)Nc2sccc2C#N)cc1,0,-0.4,1.7%,-18,-3.0,-15
CC(C)[C@@H]1Cc2[nH]n(C)c(=O)c2[C@H](c2ccc(F)cc2)O1,5,-0.3,-0.1%,4,nt,nt
Cc1cccc(CSc2nnc(CCNC(=O)OC(C)(C)C)o2)c1,5,0.1,-1.3%,3,-1.8,-1
CSc1ccccc1OCc1cc(C(=O)NCc2cccc(C)n2)no1,-3,-1.1,0.5%,-5,2.4,-4
O=C(O)c1c[nH]n2c(=S)ncnc12,-5,0.0,1.2%,?,-4.2,-12
O=C1CC(N2CCN(c3nc4ccccc4s3)CC2)C(=O)N1Cc1cccs1 (stereo unspecified),-7,0.4,2.0%,3,1.1,-13
Cc1nn(-c2ccc(C(=O)O)cc2)c(N)c1-c1ccccc1,-1,-0.9,0.3%,8,-2.4,-10

# Bioassay records deposited in PubChem BioAssay by National Center for Advancing Translational Sciences (NCATS).
